Screening data (PubChem BioAssay)
NPYLR7 agonist = activates Aedes aegypti NPYLR7 receptor; HEK293T NPYLR7/Galpha15, GCaMP6s calcium fluorescence; activation, % at 10 µM; 0.15% of 270,000 active; AID 1259423; in the data active = activation above about 40%;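 also: 0% = vehicle and 100% = reference agonist at the receptor; some compounds past the cut are filed as inactive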
NPYLR7 agonist max-min = further read-out of NPYLR7 agonist, marked with its call; activation, %; measured here: Max-Min RFU normalised activation; some inactives read as strong as hits;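 span of the calcium signal over five minutes; 0% = vehicle and 100% = native peptide agonist; compound fluorescence can raise it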
* marks the source's active call; other numbers are inactive results. These rows are one share of the data; count on the stated rates, not on these rows.

SMILES	NPYLR7 agonist	NPYLR7 agonist max-min
COc1cc2c(cc1OC)C(c1ccccc1Cl)N(C(=O)c1ccc(SC(F)(F)F)cc1)CC2 (stereo not drawn)	21	11
COC(CNC(=O)C1CCCC1)C(C)C (stereo not drawn)	16	10
O=C(c1ccc2ncsc2c1)N(C/C=C/c1ccccc1)CCO	4	-1
CC(=O)C1=C(O)C(=O)N(c2nnn(C)n2)C1c1cccs1 (stereo not drawn)	6	5
COCC(=O)N1CCN(c2cc(OC)cc(OC)c2)C(=O)C1C (stereo not drawn)	15	28
CCOC(=O)c1ccccc1NC(=O)CSc1cn(CC(=O)N2CCCC2)c2ccccc12	-2	-5
CCC(C)c1ccc(NC(=S)Nc2cn(CC)nc2C(N)=O)cc1 (stereo not drawn)	-9	-15
Cc1cccc(-n2c(C)nnc2SCCO)c1	13	9
CC(=O)N(c1cccc(Cl)c1)c1nc(C=C2N=C(c3ccccc3Cl)OC2=O)cs1	4	2
COc1ccc(-c2ccc(CNCCNCC(C)O)o2)cc1Cl (stereo not drawn)	1	8
COC(=O)C1CCCCN1C(=O)CC1(c2cccc(C(F)(F)F)c2)CC(=O)N(C2CC2)C1=O (stereo not drawn)	18	8
C=CCN(C)Cc1cccc(C(=O)Nc2cnn(C)c2)c1	6	5
CC(C)(N)c1cn(-c2ccccc2)nn1	-1	16
COC(=O)c1ccc(C(=O)N2CCCC(CO)(Cc3ccc(F)cc3F)C2)nc1 (stereo not drawn)	2	-5
CCN(Cc1ncc(C)[nH]1)CC1CCN(CCc2ccccc2C)CC1	4	2
Cc1nc(Sc2nnnn2C2CC2)c2c(C)c(C)sc2n1	8	13
Cc1ccc(N2CCn3c2nc2c3c(=O)n(CCN3CCCCC3)c(=O)n2C)cc1C	4	-1
COc1ccc(-c2ccc3c(c2)N(C(C)C)C(=O)COC3)cn1	7	2
COc1ccc(-c2cc(C(=O)N3CCN(c4ccc(OC)cc4)CC3)c(C)n2-c2ccc(F)cc2F)cc1	-4	3
COc1ccc(-c2n[nH]c(=O)c3nc(C)sc23)cc1OC	-6	-4
COc1cccc(N=Nc2c(-c3ccccc3)[nH]n(-c3ccc([N+](=O)[O-])cc3)c2=O)c1	-4	-8
COc1ccc(CCC(=O)NCCCn2nc(-c3cccnc3)ccc2=O)cc1	12	4
N=C(N)Sc1cn(Cc2ccc(Cl)cc2)c2ccccc12	-9	-13
Cc1cc(CC(=O)N(Cc2cnn(C)c2)C(C)C)on1	3	7
Cc1nc(C)c(CN2CCCC(C(=O)Nc3cccc(-n4cccn4)c3)C2)nc1C (stereo not drawn)	9	5

Ordered by SMILES length (low to high): some entries from above
SMILES	NPYLR7 agonist	NPYLR7 agonist max-min
CCC(C)c1ccc(NC(=S)Nc2cn(CC)nc2C(N)=O)cc1 (stereo not drawn)	-9	-15
COc1ccc(-c2ccc3c(c2)N(C(C)C)C(=O)COC3)cn1	7	2
CC(=O)N(c1cccc(Cl)c1)c1nc(C=C2N=C(c3ccccc3Cl)OC2=O)cs1	4	2

Remaining list, next part.
SMILES	NPYLR7 agonist	NPYLR7 agonist max-min
O=C1NC(=O)C2(CCN(C(=O)Cc3ccc(-n4cccn4)cc3)CC2)N1	7	4
C[C@H]1OC(=O)CC[C@@H]2[C@]1(C)CCC1[C@@]2(C)CC[C@@]2(C)C3CC(C)(C)CC[C@]3(CO)CC[C@]12C (stereo partly drawn)	3	1
COCCn1cc(NC(=O)N2CCN(Cc3ccccc3)CC2)c2ccccc21	17	6
Cc1cc(N)nc(SC(C)C(=O)N(C)C2(C#N)CCCCC2)n1 (stereo not drawn)	6	13
COc1cc(CN2CCC3(CCCN(CC4CCC4)C3)C2)cc(Cl)c1O (stereo not drawn)	9	3
Cc1noc(C)c1C(C)NC(=O)N(Cc1ccoc1)C1CCCCC1 (stereo not drawn)	4	4
Cn1c(C(=O)NCC2CCCO2)cc2sc(Cl)cc21 (stereo not drawn)	7	8
O=C(CSc1nnc(NC(=O)c2c(F)cccc2F)s1)Nc1nnc(-c2cccc([N+](=O)[O-])c2)s1	-3	7
CNc1nnc(SCC(=O)Nc2ccc(C(=O)OC)cc2)s1	4	13
Cc1ccc(C(=O)Nc2cnc3sc4cc(C)ccc4n3c2=O)cc1	12	4
C=CCN1CCC(C(=O)NC(c2ccc(C)cc2)c2ccccn2)CC1 (stereo not drawn)	-3	-3
O=C(NC(Cc1ccccc1)c1nnc(SCc2ccc(F)cc2)n1-c1ccc(Cl)cc1Cl)NC12CC3CC(CC(C3)C1)C2 (stereo not drawn)	0	13
Cc1ccc(C(C)C(=O)N2CCOC(COc3ccc(Cl)c(C)c3)C2)cc1 (stereo not drawn)	6	-1
Cc1c2c(n(Cc3cccc(F)c3)c1C(=O)NCCN1CCOCC1)CCCC2	12	6
COc1ccc(C)c2sc(N3CCN(C(=O)C4CCCN4S(C)(=O)=O)CC3)nc12 (stereo not drawn)	-3	-4
CCOc1ccccc1N1CCN(C(=O)CCN(Cc2ccco2)c2nc(Cc3ccc(F)cc3)ns2)CC1	15	15
COc1cc2c(cc1OC)CN(c1cc(C(=O)NCc3ccc(Cl)cc3)c3ccccc3n1)CC2	5	1
Cn1c(=O)c2c(nc3n2CC(C(C)(C)C)=NN3CC(N)=O)n(C)c1=O	7	11
COCCN(CC1CCN(Cc2ccccc2OC)CC1)C(=O)c1cc(C)[nH]n1	6	5
COc1ccc(CNC(=O)Cn2c3ccccc3c3ncn(Cc4ccccc4)c(=O)c32)cc1	1	-1
CC(=O)N1N=C(c2cn(-c3ccccc3)nc2-c2ccccc2)CC1c1ccco1 (stereo not drawn)	0	-3
CC(NC(=O)c1cnn2c1CCCC2)c1cn2ncsc2n1 (stereo not drawn)	7	6
COc1cccc(C2C(=C(O)c3ccc(C)cc3)C(=O)C(=O)N2Cc2cccnc2)c1OC (stereo not drawn)	0	1
CCOC(=O)C1CCCN(C(=O)c2cc(-c3cccc(OC)c3)n(-c3ccccc3)c2C)C1 (stereo not drawn)	0	11
O=C(CSc1nnc(-c2ccc(Cl)s2)o1)N1CCCC1	12	3

Shown as a markdown table: part of the list above.
| SMILES | NPYLR7 agonist | NPYLR7 agonist max-min |
| --- | --- | --- |
| Cn1c(=O)c2c(nc3n2CC(C(C)(C)C)=NN3CC(N)=O)n(C)c1=O | 7 | 11 |
| COCCn1cc(NC(=O)N2CCN(Cc3ccccc3)CC2)c2ccccc21 | 17 | 6 |
| COCCN(CC1CCN(Cc2ccccc2OC)CC1)C(=O)c1cc(C)[nH]n1 | 6 | 5 |
| COc1cccc(C2C(=C(O)c3ccc(C)cc3)C(=O)C(=O)N2Cc2cccnc2)c1OC (stereo not drawn) | 0 | 1 |
| CC(=O)N1N=C(c2cn(-c3ccccc3)nc2-c2ccccc2)CC1c1ccco1 (stereo not drawn) | 0 | -3 |
| Cc1cc(N)nc(SC(C)C(=O)N(C)C2(C#N)CCCCC2)n1 (stereo not drawn) | 6 | 13 |
| COc1cc(CN2CCC3(CCCN(CC4CCC4)C3)C2)cc(Cl)c1O (stereo not drawn) | 9 | 3 |

Carrying on.
SMILES	NPYLR7 agonist	NPYLR7 agonist max-min
C=Cc1ccc(COc2cc(C)cc3oc(=O)c(CC(=O)OC)c(C)c23)cc1	-8	-16
Cc1cccc(Cn2c(=O)c(C(=O)NCc3ccc(F)cc3)nn(-c3cccc(C)c3)c2=O)c1	10	11
CC(NCc1cc(Cl)c2c(c1)OCCO2)c1cccs1 (stereo not drawn)	0	-1
Cc1ccccc1C1CCCN1C(=O)c1cccc2ccnn12 (stereo not drawn)	0	-4
OC(CN1CCC(C(O)c2ccccc2)CC1)c1ccccc1C(F)(F)F (stereo not drawn)	8	8
O=C(NCc1cccc(F)c1)C(C1CCCC1)N1CCN(C(=O)c2cccc([N+](=O)[O-])c2)CC1 (stereo not drawn)	-2	4
O=C1NCCN(C(=O)COc2ccc(Br)cc2F)C1c1ccccc1 (stereo not drawn)	8	8
Cn1ccc(=O)n(Cc2ccc(-n3cccn3)cc2)c1=O	13	10
CN1CCCCC1CCOC(=O)c1ccc(-n2cccn2)cc1 (stereo not drawn)	9	6
O=S(=O)(N1CCCCCC1)N1CC[C@@H](c2ccc3c(c2)OCO3)[C@H](O)C1	-3	-3
CN1CCN(S(=O)(=O)c2ccc3ccccc3c2)CC1	-2	-5
Cc1ccc(Cc2nsc(N(CCC(=O)NCCN3CCCCC3)C(C)C)n2)cc1	15	13
Cc1cc(CC(C)NC(=O)c2c(Cl)cnn2C)n[nH]1 (stereo not drawn)	-2	14
CCc1ccc(NS(=O)(=O)c2cc(CC)ccc2OC)cc1	10	9
O=C(O)c1cc(-c2ccc3c(c2)OCO3)cc(S(=O)(=O)N2CCSCC2)c1	15	9
COCC(NC(=O)c1cn(Cc2c(F)cccc2F)nn1)c1ccnn1C (stereo not drawn)	11	3
COc1cc(/C=C2/C(=O)NN(c3ccc(C)c(C)c3)C2=O)c(Br)c(Br)c1O	0	1
CCOC(=O)C1=C(C)NC(C)=C(C(=O)OCC)C1C(=O)OCC(=O)N(C)C	4	6
CCOC(=O)N1CCN(C(c2ccc(F)cc2)c2c(O)cc(C)n(Cc3ccco3)c2=O)CC1 (stereo not drawn)	9	4
O=C1C2CC=CCC2C(=O)N1CN1CCCC1c1nc2ccccc2s1 (stereo not drawn)	3	1
CCOc1ccc(-c2cc3c(=O)n(CC(=O)NCCc4ccc(Cl)cc4)ccn3n2)cc1	11	8
CCOc1ccc(-c2cc3c(=O)n(CC(=O)NCc4ccc(OC)cc4)ncn3n2)cc1	-12	-15
Cc1ccc(F)cc1C(=O)N1CCN(c2nc3nccc(-c4cc(Cl)ccc4Cl)n3n2)CC1	3	0
C=CCOC(CN1CCN(S(=O)(=O)c2cc(C)ccc2F)CC1)c1cccc(OC)c1 (stereo not drawn)	-2	7
CC(C)CCNc1cc(Cl)nc(N)n1	-9	-14

Quoted from the listing:
Under NPYLR7 agonist max-min, CCOc1ccc(-c2cc3c(=O)n(CC(=O)NCc4ccc(OC)cc4)ncn3n2)cc1 is listed with -15
Under NPYLR7 agonist max-min, O=S(=O)(N1CCCCCC1)N1CC[C@@H](c2ccc3c(c2)OCO3)[C@H](O)C1 is listed with -3
Under NPYLR7 agonist max-min, O=C(NCc1cccc(F)c1)C(C1CCCC1)N1CCN(C(=O)c2cccc([N+](=O)[O-])c2)CC1 (stereo not drawn) is listed with 4
Under NPYLR7 agonist max-min, O=C1NCCN(C(=O)COc2ccc(Br)cc2F)C1c1ccccc1 (stereo not drawn) is listed with 8
Under NPYLR7 agonist, OC(CN1CCC(C(O)c2ccccc2)CC1)c1ccccc1C(F)(F)F (stereo not drawn) is listed with 8

(more compounds)
SMILES	NPYLR7 agonist	NPYLR7 agonist max-min
CNc1cc(-c2ccc3ccccc3n2)c2cc[nH]c2n1	12	4
COc1cccc(C2c3[nH]c4ccccc4c3CCN2C(=O)CCc2cccs2)c1OC (stereo not drawn)	-5	-5
CC(C)CNC(=O)C1(C)CCCN1C(=O)c1c(Cl)cccc1Cl (stereo not drawn)	-8	-8
CCCCCc1[nH]nc(N)c1-c1ccc2c(c1)OCO2	1	10
Fc1c(F)c(F)c(Nc2ccccc2)c(F)c1F	1	-1
COC(=O)c1cc2n(n1)CCCN(C(=O)c1nnn(Cc3ccccc3)c1C)C2	-5	-9
COc1cccc(CN(CCN2CCOCC2)Cc2nc(C(=O)NCc3ccc(F)cc3)co2)c1	14	7
Cc1ccc(C2(O)CCN(Cc3[nH]cc(C)c(=O)c3C)CC2)nc1	6	6
O=C(NC(C(=O)NCc1ccccc1)C1CCNCC1)C1CCCC1 (stereo not drawn)	-2	8
O=c1ccc(-c2cccs2)nn1Cc1cccc2ccccc12	13	7
Cc1ccc(N)c(C(O)c2ccccc2)c1 (stereo not drawn)	12	11
CN(C)S(=O)(=O)c1ccc(=O)n(CC(=O)N(C2CC2)C2CCS(=O)(=O)C2)c1 (stereo not drawn)	-1	29
CC(=O)c1ccc(S(=O)(=O)CC(F)(F)F)cc1	-2	-4
Cc1cccc(C2SCC(=O)N(CC(=O)NCC3CCCO3)c3c2c(-c2ccccc2)nn3-c2cccc(C)c2C)c1 (stereo not drawn)	22	28
CC(=O)Nc1cccc(C(=O)N2CCN(Cc3cccc(-c4noc(-c5ccccc5)n4)c3)CC2)c1	6	18
CCOC(=O)c1c(NC(=O)Cn2nc([N+](=O)[O-])c(Cl)c2C)sc2c1CCC(C)C2 (stereo not drawn)	-3	-3
Cc1c(C(=O)NCc2cccnc2)cc(-c2ccc(Cl)cc2)n1-c1cccc(F)c1	21	21
N#Cc1cccc(CNCc2ccc(N3CCOCC3)cc2C(F)(F)F)c1	2	0
O=C(c1ccc(Cl)cc1)N1CCCC(OCc2ccc(F)c(F)c2)C1 (stereo not drawn)	-5	-5
CN(CC12CC3CC(CC(C3)C1)C2)C(=O)c1ccc(S(=O)(=O)N(C)C)cc1	4	4
O=C(CN1CCN(c2cccc(C(F)(F)F)c2)CC1)Nc1cccc2ccccc12	-1	-2
Cn1ncc2c(N3CCC(C(=O)NC4CCCCC4)CC3)ncnc21	-1	-2
CC(C)(C)c1ccc(C2SCCN2C(=O)Nc2cccc(Br)c2)cc1 (stereo not drawn)	-2	2
CCN(CC)Cc1cnc2c(C(=O)N3C[C@@H](C)O[C@@H](C)C3)cnn2c1	8	6
COc1ccc(N2C(=O)CC(N3CCC(C(=O)Nc4ccccc4O)CC3)C2=O)c(OC)c1 (stereo not drawn)	1	3
CC(C)CCC1CCCCN1C(=O)NCc1nccn1C (stereo not drawn)	-3	-2
CCC(C)N(CC(=O)N(Cc1ccc(F)cc1)Cc1cccs1)C(=O)Nc1cccc(C(F)(F)F)c1 (stereo not drawn)	-4	7

Given with bars between the fields: entries from further up.
Molecule | NPYLR7 agonist | NPYLR7 agonist max-min
Cc1cccc(-n2c(C)nnc2SCCO)c1 | 13 | 9
CC(=O)N(c1cccc(Cl)c1)c1nc(C=C2N=C(c3ccccc3Cl)OC2=O)cs1 | 4 | 2
COc1ccc(-c2ccc(CNCCNCC(C)O)o2)cc1Cl (stereo not drawn) | 1 | 8
COC(=O)C1CCCCN1C(=O)CC1(c2cccc(C(F)(F)F)c2)CC(=O)N(C2CC2)C1=O (stereo not drawn) | 18 | 8
C=CCN(C)Cc1cccc(C(=O)Nc2cnn(C)c2)c1 | 6 | 5
